# Bioassay records deposited in PubChem by Broad Institute.
# Yeast UUG start – modulators of yeast start codon fidelity, primary screen, whole organism, S. cerevisiae, single point, plate reader | S. cerevisiae UUG-firefly luciferase reporter, luminescence/redox ratio | activity score, % at 18.7 µM | actives 0.13% (n = 350,000);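 active means replicate mean at a twofold rise or more, about +100% in these data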;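 further: firefly luciferase made from a UUG start codon reports start codon fidelity; reporter light over untreated wells divided by growth signal over untreated wells; some hits fall short of that in this replicate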
# Env fusion inh – inhibitors of HIV-1 Env-driven cell-cell fusion, primary screen, HeLa-JRFL effector, CEM21 target cells, luciferase | inhibition, % at 12.3 µM | actives 1.1% (n = 360,000);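 active means mean replicate inhibition score of at least 50 and every replicate individually at or above 50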;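 further: 0% = plate neutral controls and 100% = maraviroc near 300 nM; one replicate is shown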
# * = called active by the depositor; & = joins results of further samples; [ ] = dose if it differs, or a comment. Only part of the results is shown, so the mix of outcomes need not match the whole.
# Every second line gives: Yeast UUG start, Env fusion inh
- C[C@H]1CN([C@@H](C)CO)C(=O)c2cc(NC(=O)c3ccncc3)ccc2O[C@@H]1CN(C)Cc1ccc(C(F)(F)F)cc1
 : 2, 11[16.7 µM]
- COCCNC(=O)C[C@@H]1C[C@H]2c3cc(NC(=O)Nc4ccc(OC)cc4)ccc3O[C@H]2[C@@H](CO)O1
 : 26, -3[16.7 µM]
- C[C@H](CO)N1C[C@H](C)[C@H](CN(C)C(=O)c2ccccn2)Oc2cc(C#CC3CC3)ccc2S1(=O)=O
 : -2, 7[16.7 µM]
- CS(=O)(=O)Nc1ccc2c(c1)[C@@H]1C[C@H](CC(=O)NCc3ccc(Oc4ccccc4)cc3)O[C@@H](CO)[C@@H]1O2
 : 1, 4[16.7 µM]
- COc1cccc(C#Cc2cnc3c(c2)C(=O)N([C@@H](C)CO)C[C@@H](C)[C@@H](CN(C)C(=O)C2CCC2)O3)c1
 : 6, -13[16.7 µM]
- CC(C)NC(=O)N(C)C[C@H]1OCCCC[C@@H](C)Oc2ccc(NS(=O)(=O)c3ccc(F)cc3)cc2C(=O)N([C@@H](C)CO)C[C@H]1C
 : -5, -20[16.7 µM]
- C[C@@H]1CCCCO[C@H](CN(C)S(C)(=O)=O)[C@H](C)CN([C@@H](C)CO)C(=O)c2cc(NC(=O)Nc3ccccc3)ccc2O1
 : -8, 2[16.7 µM]
- C[C@@H]1CN([C@H](C)CO)C(=O)c2cc(-c3cccc(F)c3)cnc2O[C@H]1CN(C)C(=O)C1CCC1
 : -2, -7[16.7 µM]
- C[C@@H]1CN([C@H](C)CO)C(=O)c2cc(NC(=O)NC3CCCCC3)ccc2O[C@@H](C)CCCCO[C@@H]1CN(C)S(=O)(=O)c1cccs1
 : -10, -65[16.7 µM]
- C[C@H](CO)N1C[C@H](C)[C@@H](CN(C)S(=O)(=O)c2ccc(F)cc2)Oc2ccc(NS(=O)(=O)c3ccc(Cl)cc3)cc2C1=O
 : 8, 7[16.7 µM]
- C[C@H]1CN([C@@H](C)CO)C(=O)c2cccc(NS(=O)(=O)c3ccc(Cl)cc3)c2O[C@H]1CN(C)Cc1ccc(-c2ccccc2)cc1
 : 18, 16[16.7 µM]
- CC(=O)N(C)C[C@@H]1Oc2ncc(C#Cc3cccc(F)c3)cc2C(=O)N([C@H](C)CO)C[C@H]1C
 : 18, 0[16.7 µM]
- C[C@H](CO)N1C[C@H](C)[C@H](CN(C)Cc2ccc(F)cc2)Oc2ncc(-c3ccc(F)cc3)cc2C1=O
 : -8&-5, 1&31[16.7 µM]
- C[C@@H]1CCCCO[C@@H](CN(C)S(=O)(=O)c2ccc(Cl)cc2)[C@@H](C)CN([C@H](C)CO)C(=O)c2cc(NS(C)(=O)=O)ccc2O1
 : 5, 14[16.7 µM]
- COc1ccc(S(=O)(=O)N(C)C[C@@H]2OCCCC[C@H](C)Oc3ccc(NC(=O)Nc4cccc5ccccc45)cc3C(=O)N([C@H](C)CO)C[C@@H]2C)cc1
 : -15, -88[16.7 µM]
- C[C@H](CO)N1C[C@H](C)[C@@H](CN(C)Cc2ccc(C(=O)Nc3ccccc3N)cc2)Oc2ccc(NS(=O)(=O)c3ccc(Cl)cc3)cc2CC1=O
 : 6, -10[16.7 µM]
- CC(C)CC#Cc1ccc2c(c1)O[C@H](CN(C)S(=O)(=O)c1cccc(F)c1)[C@H](C)CN([C@H](C)CO)S2(=O)=O
 : -3, 44[16.7 µM]
- C[C@@H]1CCCCO[C@@H](CN(C)Cc2ccc3c(c2)OCO3)[C@@H](C)CN([C@H](C)CO)C(=O)c2cc(NS(C)(=O)=O)ccc2O1
 : 6, 1[16.7 µM]
- C[C@H](NC(=O)C[C@H]1C=C[C@H](NC(=O)C2CCC2)[C@@H](CO)O1)c1ccccc1
 : -10, -15[16.7 µM]
- C[C@@H]1CCCCO[C@@H](CN(C)S(=O)(=O)c2ccccc2)[C@H](C)CN([C@H](C)CO)C(=O)c2cc(NC(=O)C3CCCCC3)ccc2O1
 : 4, -30[16.7 µM]
- C[C@H](CO)N1C[C@H](C)[C@@H](CN(C)S(=O)(=O)c2cccs2)OCCCC[C@H](C)Oc2ccc(N(C)C)cc2C1=O
 : 33, -9[16.7 µM]
- COc1ccc(C#Cc2ccc3c(c2)O[C@H](CN(C)C(C)=O)[C@@H](C)CN([C@H](C)CO)S3(=O)=O)cc1
 : -2, 20[16.7 µM]
- C[C@@H]1CN([C@@H](C)CO)C(=O)c2cc(NS(=O)(=O)c3ccc(F)cc3)ccc2O[C@@H]1CN(C)Cc1ccc(Oc2ccccc2)cc1
 : 11, 7[16.7 µM]
- Cc1noc(C)c1NC(=O)Nc1ccc2c(c1)C(=O)N([C@@H](C)CO)C[C@@H](C)[C@@H](CN(C)C(=O)c1ccccc1)OCCCC[C@@H](C)O2
 : 6, -2[16.7 µM]
- C[C@@H]1CN([C@@H](C)CO)C(=O)c2cc(NS(=O)(=O)c3ccccc3)ccc2O[C@@H](C)CCCCO[C@@H]1CN(C)Cc1ccc(C(F)(F)F)cc1
 : 6, -24[16.7 µM]
- COc1ccc(CNC(=O)C[C@@H]2C=C[C@@H](NC(=O)c3ccc4c(c3)OCO4)[C@H](CO)O2)cc1
 : -4, 3[16.7 µM]
- CO[C@@H]1CN(C)C(=O)c2ccc(NC(=O)Cc3ccccc3)cc2OC[C@H](C)N(C)C[C@@H]1C
 : -2, -1[16.7 µM]
- C[C@@H]1CN([C@@H](C)CO)C(=O)Cc2cc(NS(=O)(=O)c3cn(C)cn3)ccc2O[C@H]1CN(C)S(=O)(=O)c1ccc(Cl)cc1
 : 23, -27[16.7 µM]
- C/C=C/c1cnc2c(c1)C(=O)N([C@@H](C)CO)C[C@H](C)[C@H](CN(C)C(=O)Cc1ccccn1)O2
 : -14, -8[16.7 µM]
- CC(C)C#Cc1ccc2c(c1)O[C@H](CN(C)Cc1ccccc1)[C@@H](C)CN([C@H](C)CO)S2(=O)=O
 : -6, 21[16.7 µM]
- COc1cccc(-c2ccc3c(c2)O[C@@H](CN(C)CC2CC2)[C@@H](C)CN([C@@H](C)CO)S3(=O)=O)c1
 : -13, -19[16.7 µM]
- CC(C)NC(=O)Nc1ccc2c(c1)C(=O)N([C@@H](C)CO)C[C@@H](C)[C@H](CN(C)S(=O)(=O)c1cccs1)O2
 : 11, 13[16.7 µM]
- C[C@@H]1CN([C@H](C)CO)S(=O)(=O)c2ccc(C3=CCCCC3)cc2O[C@H]1CN(C)Cc1ccccn1
 : -19, 11[16.7 µM]
- CNC(=O)C[C@H]1CC[C@@H]2[C@@H](COc3ccc(NC(=O)Nc4ccc(Cl)cc4)cc3C(=O)N2C)O1
 : 8, 31[16.7 µM]
- C[C@H]1CN([C@@H](C)CO)C(=O)c2cc(NC(=O)Nc3ccccc3)ccc2O[C@H]1CN(C)S(=O)(=O)c1cccs1
 : -1, 32[16.7 µM]
- CCCNC(=O)N1[C@H](C#N)[C@@H](c2ccc(C#Cc3cccc(F)c3)cc2)[C@@H]1CO
 : -14, 8[16.7 µM]
- C[C@@H]1CN([C@H](C)CO)C(=O)c2cc(NS(=O)(=O)c3ccc(F)cc3)ccc2O[C@@H](C)CCCCO[C@H]1CN(C)Cc1ccccc1
 : 12, 3[16.7 µM]
- COC(=O)C[C@H]1C[C@@H]2c3cc(NC(=O)CN(C)C)ccc3O[C@@H]2[C@@H](CO)O1
 : -13, -16[16.7 µM]
- CC(C)CC#Cc1cnc2c(c1)C(=O)N([C@H](C)CO)C[C@@H](C)[C@@H](CN(C)C(=O)Nc1ccccc1F)O2
 : 14, 9[16.7 µM]
- O=C(Cc1ccccc1)N[C@@H]1CC[C@H](CC(=O)N2CCCCC2)O[C@@H]1CO
 : -7, -19[16.7 µM]
- CC(C)CC#Cc1cnc2c(c1)C(=O)N([C@@H](C)CO)C[C@H](C)[C@@H](CN(C)C(=O)c1ccccc1)O2
 : 20, -4[16.7 µM]
- C[C@H](CO)N1C[C@H](C)[C@H](CN(C)C)Oc2cc(C#CC3CCCC3)ccc2S1(=O)=O
 : 6, 19[16.7 µM]
- N#C[C@H]1N[C@H](CO)[C@@H]1c1ccc(-c2ccccc2F)cc1
 : 1, 0[16.7 µM]
- CNC[C@@H]1Oc2c(NC(=O)C3CCCCC3)cccc2C(=O)N([C@H](C)CO)C[C@H]1C
 : -1, -13[16.7 µM]
- C[C@@H]1CCCCO[C@H](CN(C)C(=O)c2ccncc2)[C@@H](C)CN([C@@H](C)CO)C(=O)c2cc(NC(=O)CCC(F)(F)F)ccc2O1
 : 0, -1[16.7 µM]
- COc1cccc(S(=O)(=O)N(C)C[C@@H]2Oc3ncc(/C=C/c4ccccc4)cc3C(=O)N([C@H](C)CO)C[C@@H]2C)c1
 : 10, 52[16.7 µM]
- C[C@@H]1CCCCO[C@H](CN(C)Cc2ccncc2)[C@H](C)CN([C@@H](C)CO)C(=O)c2cc(NS(=O)(=O)c3cn(C)cn3)ccc2O1
 : -1, 0[16.7 µM]
- CCCC#Cc1cnc2c(c1)C(=O)N([C@@H](C)CO)C[C@H](C)[C@H](CN(C)C(=O)c1ccc(F)cc1)O2
 : 6, -2[16.7 µM]
- Cc1noc(C)c1S(=O)(=O)N(C)C[C@H]1Oc2ccc(NC(=O)Nc3cccc4ccccc34)cc2CC(=O)N([C@H](C)CO)C[C@@H]1C
 : -15, 10[16.7 µM]
- N#C[C@@H]1[C@H](c2ccc(C3=CCCCC3)cc2)[C@H](CO)N1C(=O)CN1CCOCC1
 : 12, 42[16.7 µM]
- COCC(=O)Nc1ccc2c(c1)C(=O)N(C)[C@@H]1CC[C@@H](CC(=O)NC3CCCC3)O[C@@H]1CO2
 : -20, -19[16.7 µM]
- CCC(=O)Nc1ccc2c(c1)C(=O)N(C)[C@@H]1CC[C@H](CC(=O)NCCCN(C)C)O[C@H]1CO2
 : 3, 5[16.7 µM]
- O=C(C[C@H]1CC[C@H](NC(=O)Nc2ccc(C(F)(F)F)cc2)[C@@H](CO)O1)NCCN1CCCC1
 : -10, 0[16.7 µM]
- C/C=C/c1cnc2c(c1)C(=O)N([C@@H](C)CO)C[C@H](C)[C@H](CN(C)S(=O)(=O)c1ccccc1F)O2
 : -4, -8[16.7 µM]
- C[C@@H]1CN([C@@H](C)CO)S(=O)(=O)c2ccc(-c3ccc(C(=O)N(C)C)cc3)cc2O[C@@H]1CN(C)C
 : 20, -8[16.7 µM]
- O=C(C[C@H]1CC[C@H](NC(=O)Nc2ccccc2F)[C@@H](CO)O1)NCc1ccccc1
 : -3, 2[16.7 µM]
- CN(C)CCCNC(=O)C[C@@H]1CC[C@@H]2[C@@H](COc3ccc(NC(=O)c4cccc(F)c4)cc3C(=O)N2C)O1
 : -13, 12[16.7 µM]
- CCCC#Cc1cnc2c(c1)C(=O)N([C@H](C)CO)C[C@H](C)[C@H](CN(C)C(=O)Nc1c(C)noc1C)O2
 : 8, 2[16.7 µM]
- CC(C)NC(=O)Nc1ccc2c(c1)C(=O)N([C@@H](C)CO)C[C@H](C)[C@@H](CN(C)C(=O)c1ccccc1)OCCCC[C@H](C)O2
 : -14, -3[16.7 µM]
- C[C@H]1CN([C@@H](C)CO)C(=O)c2cc(C#CC3(O)CCCC3)cnc2O[C@H]1CN(C)C(=O)C1CCC1
 : 7, -5[16.7 µM]

# The list goes on:
# Every second line gives: Yeast UUG start, Env fusion inh
- C[C@H](CO)N1C[C@H](C)[C@H](CN(C)Cc2ccncc2)Oc2ncc(C#CC3(O)CCCC3)cc2C1=O
 : -2, -8[16.7 µM]
- Cc1noc(C)c1S(=O)(=O)Nc1ccc2c(c1)C(=O)N([C@@H](C)CO)C[C@@H](C)[C@@H](CN(C)S(=O)(=O)c1cn(C)cn1)O2
 : 2, -8[16.7 µM]
- C[C@H]1CN([C@@H](C)CO)C(=O)c2cc(NC(=O)Nc3ccccc3)ccc2O[C@H]1CN(C)Cc1ccc(C(F)(F)F)cc1
 : 5, -33[16.7 µM]
- O=C(C[C@H]1C=C[C@H](NS(=O)(=O)c2ccccc2)[C@@H](CO)O1)N1CCc2ccccc2C1
 : 8, 5[16.7 µM]
- Cc1ccc(S(=O)(=O)N(C)C[C@H]2Oc3c(NC(=O)Nc4ccccc4)cccc3C(=O)N([C@@H](C)CO)C[C@H]2C)cc1
 : -9, -6[16.7 µM]
- C[C@@H]1CN([C@H](C)CO)C(=O)c2cc(-c3cccc(C(=O)N(C)C)c3)cnc2O[C@H]1CN(C)S(=O)(=O)c1ccc(F)cc1
 : 2, -2[16.7 µM]
- COc1ccc(NC(=O)Nc2ccc3c(c2)C(=O)N([C@@H](C)CO)C[C@@H](C)[C@H](CN(C)C(=O)c2ccccc2)OCCCC[C@H](C)O3)cc1
 : 9, 37[16.7 µM]
- Cc1noc(C)c1NC(=O)Nc1ccc2c(c1)C(=O)N([C@H](C)CO)C[C@@H](C)[C@H](CN(C)S(=O)(=O)c1ccc(Cl)cc1)O2
 : 4, -12[16.7 µM]

# Sorted by the number under Yeast UUG start (lowest first): some entries from above
mol,Yeast UUG start
C[C@H](CO)N1C[C@H](C)[C@H](CN(C)Cc2ccncc2)Oc2ncc(C#CC3(O)CCCC3)cc2C1=O,-2
Cc1noc(C)c1NC(=O)Nc1ccc2c(c1)C(=O)N([C@H](C)CO)C[C@@H](C)[C@H](CN(C)S(=O)(=O)c1ccc(Cl)cc1)O2,4
C[C@H]1CN([C@@H](C)CO)C(=O)c2cc(NC(=O)Nc3ccccc3)ccc2O[C@H]1CN(C)Cc1ccc(C(F)(F)F)cc1,5
O=C(C[C@H]1C=C[C@H](NS(=O)(=O)c2ccccc2)[C@@H](CO)O1)N1CCc2ccccc2C1,8

# Single entries from the entries so far.
# Yeast UUG start, CC(C)CC#Cc1ccc2c(c1)O[C@H](CN(C)S(=O)(=O)c1cccc(F)c1)[C@H](C)CN([C@H](C)CO)S2(=O)=O is entered as -3
# Yeast UUG start, CNC(=O)C[C@H]1CC[C@@H]2[C@@H](COc3ccc(NC(=O)Nc4ccc(Cl)cc4)cc3C(=O)N2C)O1 is entered as 8
